MenB inh – M. tuberculosis MenB inhibitors, primary screen, biochemical, absorbance | 1,4-dihydroxy-2-naphthoyl-CoA synthase (Mycobacterium tuberculosis (strain ATCC 25618 / … | MenB enzyme assay, absorbance read-out; some hits fall short of the stated cut | inhibition, %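 (about 12 µg/mL by stock and volumes)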 | 0.43% of 100,000 active | AID 540299, 2011;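 active = mean of two replicates above 30%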;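 note: 0% = no compound and 100% = wells with inactive enzyme; the first replicate is given; strong numbers were not always called active; inactives centre near -10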
Target sequence (P9WNP5 whole entry, looked up): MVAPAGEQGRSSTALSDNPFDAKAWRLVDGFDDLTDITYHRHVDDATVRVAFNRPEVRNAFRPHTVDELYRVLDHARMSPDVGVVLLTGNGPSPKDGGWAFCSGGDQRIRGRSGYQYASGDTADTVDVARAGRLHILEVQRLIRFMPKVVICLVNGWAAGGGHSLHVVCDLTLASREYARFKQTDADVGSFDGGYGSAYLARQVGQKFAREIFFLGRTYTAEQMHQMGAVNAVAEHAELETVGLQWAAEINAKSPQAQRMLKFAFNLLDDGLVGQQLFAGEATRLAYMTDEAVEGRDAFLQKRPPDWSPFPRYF
PV pol inh – poliovirus RdRp elongation inhibitors, primary screen, biochemical, fluorescence polarization, total intensity; Genome polyprotein (Poliovirus type 1 (strain Mahoney)), P03300; poliovirus polymerase elongation; hits give low values; % elongation, % (compound at 16.7 µg/mL); 0.66% of 150,000 active; AID 588519, 2011; in the data active = % elongation below about 90%; note: some results filed as inactive read as strong as hits
MbtI inh – MbtI salicylate synthase inhibitors, primary screen, biochemical, fluorescence intensity. P9WFX0. purified MbtI enzyme, fluorescence intensity read-out. inhibition, %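 (about 17 µg/mL by stock and volumes)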. 0.89% of 100,000 active. AID 493033, 2011;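 active = above 50% in both replicates, above 80% if mildly self-fluorescent; inactive = the rest, strongly fluorescent compounds included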;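 note: 0% = mean of negative and 100% = mean of positive controls; one replicate is shown; some compounds called inactive have numbers as strong as hits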
Target sequence (P9WFX0 whole entry, looked up): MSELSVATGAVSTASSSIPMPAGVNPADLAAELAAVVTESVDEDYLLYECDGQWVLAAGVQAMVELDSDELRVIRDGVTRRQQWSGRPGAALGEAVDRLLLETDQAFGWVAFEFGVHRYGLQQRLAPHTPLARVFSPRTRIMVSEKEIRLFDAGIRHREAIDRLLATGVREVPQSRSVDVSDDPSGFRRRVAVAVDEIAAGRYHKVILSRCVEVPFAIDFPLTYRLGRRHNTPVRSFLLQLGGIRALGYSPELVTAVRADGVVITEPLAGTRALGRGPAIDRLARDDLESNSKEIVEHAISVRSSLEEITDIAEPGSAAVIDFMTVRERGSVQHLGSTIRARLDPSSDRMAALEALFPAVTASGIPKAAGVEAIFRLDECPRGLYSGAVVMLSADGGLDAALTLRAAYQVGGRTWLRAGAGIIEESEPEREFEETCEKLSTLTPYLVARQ
PV pol inh intensity – further read-out of PV pol inh, marked with its call; % elongation; measured here: total intensity read-out; formula for this scale not given here;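 total fluorescence in place of polarization; lower means less elongation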
Numbers without * were called inactive; . = not tested or not shown; & = joins results of further samples.

Sample of the layout, three compounds:
Codes – A = MenB inh; B = PV pol inh; C = PV pol inh intensity; D = MbtI inh
SMILES: Cc1nc(O)c(C(c2ccccc2F)C(C#N)C#N)[nH]1 (configuration not stated)
  A = -21	B = 102	C = 97	D = -3

SMILES: CC(=O)Nc1ccc(N/C=C/C(=O)C(C)(C)C)cc1
  A = -6	B = 99	C = 100	D = -9

SMILES: CCC1CCCCN1CCCNc1cnnc2c(Cl)cccc12 (configuration not stated)
  A = -9	B = 102	C = 100	D = 1

Results, from the first entry:
Codes – A = MenB inh; B = PV pol inh; C = PV pol inh intensity; D = MbtI inh
SMILES: Cc1nc(O)c(C(c2ccccc2F)C(C#N)C#N)[nH]1 (configuration not stated)
  A = -21	B = 102	C = 97	D = -3

SMILES: CC(=O)Nc1ccc(N/C=C/C(=O)C(C)(C)C)cc1
  A = -6	B = 99	C = 100	D = -9

SMILES: CCC1CCCCN1CCCNc1cnnc2c(Cl)cccc12 (configuration not stated)
  A = -9	B = 102	C = 100	D = 1

SMILES: C1=C(N2CCOCC2)/C(=C/c2nc3ccccc3[nH]2)CC1
  A = -16	B = 111	C = 167	D = .

SMILES: c1ccc(N=C(CSc2nncs2)Nc2ccccc2)cc1
  A = -23	B = 102	C = 109	D = -9

SMILES: CCS(=O)(=O)N1Cc2ccccc2CC1C(=O)N=c1sc2ccccc2n1C (configuration not stated)
  A = -35	B = 104	C = 103	D = 97

SMILES: NC1CCOc2ccccc21 (configuration not stated)
  A = -15	B = 101	C = 108	D = 21

SMILES: CCc1cc2cc(C(=O)O)sc2s1
  A = -1	B = 101	C = 96	D = .

SMILES: Cc1cn2c(nc3c2c(=O)n(C)c(=O)n3C)o1
  A = -4	B = 107	C = 106	D = -2

SMILES: CCOc1ccc(-n2c(C)nc3cc(C(=O)NCCN4CCOCC4)ccc32)cc1
  A = -28	B = 100	C = 102	D = -16

SMILES: COc1cc(C(=O)OCCCN2CCCN(CCCOC(=O)c3cc(OC)c(OC)c(OC)c3)CC2)cc(OC)c1OC
  A = -11	B = 103	C = 103	D = -6

SMILES: O=C1CCCc2cc(S(=O)(=O)N3CCCN(Cc4ccccc4Cl)C3)ccc2N1
  A = 5	B = 101	C = 103	D = -21

SMILES: CC1Cc2ccccc2N1C(=O)COC(=O)c1ccccn1 (configuration not stated)
  A = 10	B = 103	C = 102	D = 2

SMILES: N#CC1=C(N)SC(N)=C(C#N)C1c1ccc(O)cc1
  A = -174	B = 92	C = 192	D = 83*

SMILES: c1csc(-c2nc(SCC3COc4ccccc4O3)n[nH]2)c1 (configuration not stated)
  A = 10	B = 103	C = 100	D = -298

SMILES: COc1ccc(-n2nc(C(=O)N(C)C)nc2-c2ccccc2)cc1
  A = 27	B = 103	C = 105	D = 6

SMILES: NC(=O)c1cc(SC(F)(F)F)cc(SC(F)(F)F)c1
  A = .	B = 103	C = 105	D = -3

SMILES: c1ccc(C(Cc2nc(-c3cccnc3)no2)c2ccccc2)cc1
  A = -11	B = 104	C = 103	D = -1

SMILES: COc1ccc(-n2nc(C(=O)NCC3CCCO3)c3c4ccccc4n(C)c3c2=O)cc1 (configuration not stated)
  A = -9	B = 104	C = 105	D = -74

SMILES: Cc1cc(S(=O)(=O)NC23CC4CC(CC(C4)C2)C3)ccc1-n1cnnn1
  A = -39	B = 101	C = 100	D = -7

SMILES: CC(=O)N1CCc2c(sc(NC(=O)c3ccc(Br)s3)c2-c2nc3ccccc3s2)C1
  A = -12	B = 100	C = 107	D = -6

SMILES: CCSc1ccccc1C(=O)Nc1cccc(OC)c1
  A = -21	B = 100	C = 104	D = 8

SMILES: O=C(Cc1ccccc1)N/N=C/c1ccc(O)cc1
  A = -62	B = 105	C = 103	D = -49

SMILES: NS(=O)(=O)c1ccc(NC(=O)CSc2nc3sc4c(c3c(=O)[nH]2)CCC4)cc1
  A = -11	B = 111	C = 122	D = 2

SMILES: NC(=O)C1CCN(C(=O)c2ccc(Oc3ccccc3)cc2)CC1
  A = .	B = 103	C = 106	D = -9

SMILES: CCOC(=O)c1ccccc1NS(C)(=O)=O
  A = 2	B = 103	C = 105	D = -14

SMILES: Cc1ccc(C(=O)CSc2nnc(-c3snnc3C)n2C2CC2)cc1
  A = 13	B = 103	C = 109	D = -9

SMILES: CCC(c1nnnn1C(C)(C)CC)N1CCN(c2ccccc2)CC1 (configuration not stated)
  A = 19	B = 102	C = 102	D = 8

SMILES: CC1(C)N=C(SCC(=O)Nc2ccccc2)C(c2ccccc2)=N1
  A = -6	B = 100	C = 96	D = 0

SMILES: O=C(CCCSc1nnc(-c2ccco2)n1-c1ccccc1)c1ccccc1
  A = 3	B = 103	C = 102	D = 41

SMILES: CCN(CC(=O)Nc1ccc(NC(C)=O)cc1)CC(=O)Nc1cc(C)on1
  A = -37	B = 98	C = 92	D = 8

SMILES: COc1ccc2c3c(ccc2c1)-c1[nH]c2ccccc2c1CC3
  A = -12	B = 106	C = 100	D = .

SMILES: Cc1ccc(C)n1-c1ccc(C2(O)CCSc3ccccc32)cc1 (configuration not stated)
  A = 1	B = 110	C = 115	D = -9

SMILES: Cc1ccc(C2=C[N+](=O)C(C)(C)C(C)(C)N2[O-])cc1
  A = -19	B = 98	C = 102	D = 18

SMILES: COC(=O)c1ccc2c(c1)NC(=O)c1ccccc1S2
  A = 3	B = 102	C = 106	D = -4

SMILES: Cc1cc(NC(=O)CSCC(=O)N=c2sc3ccccc3n2C)no1
  A = 2	B = 99	C = 105	D = 19

SMILES: CC(=O)Nc1ccc2nc(NC(=O)c3cccc(F)c3)sc2c1
  A = .	B = 104	C = 111	D = -33

SMILES: CCOc1ccccc1N(C)S(=O)(=O)c1cccc2cccnc12
  A = -30	B = 103	C = 92	D = 13

SMILES: CC12CCC(C1)C(C)(C)/C2=N\O (configuration not stated)
  A = 4	B = 100	C = 100	D = -6

SMILES: O=C1CSc2nnc(-c3ccccc3Br)n2N1
  A = -24	B = 105	C = 107	D = 13

SMILES: C=CCc1cccc2cc(C(=O)NCC3CCCO3)c(=O)oc12 (configuration not stated)
  A = -11	B = 106	C = 113	D = .

SMILES: CCOC(=O)N1CCN(C(=O)c2ccco2)CC1
  A = -3	B = 103	C = 114	D = .

SMILES: O=C1CNC(=O)c2ccccc2N1
  A = -9	B = 101	C = 102	D = -71

SMILES: CCOC(=O)C1=C(C)OC(N)=C(C(=O)OCC)C1c1ccncc1 (configuration not stated)
  A = 17	B = 100	C = 103	D = 2

SMILES: CC(C)(C)C(=O)/C=c1\s/c(=C\c2ccco2)c(=O)n1CC(=O)Nc1ccc(S(=O)(=O)N2CCOCC2)cc1
  A = -102	B = 114	C = 119	D = 5

SMILES: Cc1noc2ncnc(NC(C)(C)CO)c12
  A = -27	B = 101	C = 103	D = -3

SMILES: Cc1ccc(NC(=O)CSCC(=O)N2CCN(c3ncccn3)CC2)c(C)c1
  A = -22	B = 112	C = 127	D = -2

SMILES: CCC(c1nnc(SCC(=O)N(CC)c2ccccc2)o1)N(C)C (configuration not stated)
  A = -63	B = 103	C = 108	D = 6

SMILES: CN(C)c1nc(C(F)(F)F)cs1
  A = -2	B = 98	C = 105	D = -1

SMILES: CC(NC(=O)NC12CC3CC(CC(C3)C1)C2)C(=O)O (configuration not stated)
  A = -5	B = 107	C = 106	D = -5

Remaining list, next part
Codes – A = MenB inh; B = PV pol inh; C = PV pol inh intensity; D = MbtI inh
SMILES: O=c1c2ccccc2nc(SCc2ccc(Cl)cc2)n1Cc1cccs1
  A = -23	B = 99	C = 94	D = 2

SMILES: COc1ccc(CN(Cc2ccco2)C(=O)COc2ccccc2)cc1
  A = -31	B = 101	C = 100	D = 6

SMILES: COC(=O)c1sccc1NC(=O)CSCCc1ccncc1
  A = 3	B = 100	C = 104	D = 14

SMILES: CCCCNC(=O)c1ccc(CS(=O)c2ccccc2C)o1 (configuration not stated)
  A = 2	B = 101	C = 102	D = 2

SMILES: O=C(c1ccccc1)c1c[nH]c2ccccc12
  A = 0	B = 101	C = 103	D = 0

SMILES: COc1cccc2cc(C(=O)Nc3ccc(N4CCNCC4)cc3)c(=O)oc12
  A = -20	B = 101	C = 102	D = -9

SMILES: CCCN(C(=O)Cc1c(C(=O)O)n(CC)c2ccccc12)c1cccc(Cl)c1
  A = -4	B = 100	C = 97	D = 3

SMILES: O=S(=O)(c1ccc(NCCSCc2ccco2)nc1)N1CCCC1
  A = -6	B = 101	C = 111	D = -3

SMILES: C/C(=N\N1CCN(C)CC1)C1=C(O)c2ccccc2C1=O
  A = -7	B = 100	C = 103	D = 16

SMILES: Cn1cc(I)c(C(=O)O)n1
  A = -6	B = 103	C = 94	D = .

SMILES: CCC12C=CCN3CCC4(c5ccc(OC)cc5NC4C(O)(C(=O)OC)C1OC(C)=O)C32 (configuration not stated)
  A = -9	B = 102	C = 102	D = -11

SMILES: CC(C)(C)C(=O)Nc1nc2c(s1)CN(Cc1ccccc1)CC2
  A = -20	B = 112	C = 120	D = -1

SMILES: S=C=Nc1ccccn1
  A = -76	B = 95	C = 99	D = 63

SMILES: CC(=O)N1CCc2cc(S(=O)(=O)Nc3cc(C)ccc3C)ccc21
  A = -17	B = 103	C = 103	D = -11

SMILES: COc1cccc(CN(C)C(=O)CNC(N)=O)c1OC
  A = -17	B = 99	C = 97	D = 1

SMILES: COC(=O)C(C#N)C(c1cccnc1)c1c(C)[nH][nH]c1=O (configuration not stated)
  A = -38	B = 102	C = 101	D = 12

SMILES: CC(=O)NC1=NN(C(C)=O)C(c2ccccc2)S1 (configuration not stated)
  A = 0	B = 105	C = 102	D = .

SMILES: CC(C)(C)c1nc(Sc2ccc(C(F)(F)F)cn2)n[nH]1
  A = -4	B = 102	C = 100	D = 16

SMILES: CC1Cn2cc(C(=O)NCc3ccccc3)c(=O)c3c(Cl)ccc(c32)O1 (configuration not stated)
  A = -19	B = 103	C = 104	D = 5

SMILES: O=C(OCc1ccccc1)C1=NNC2C(=O)N(c3ccccc3)C(=O)C12 (configuration not stated)
  A = -19	B = 103	C = 104	D = 4

SMILES: Cn1c(C(=O)OC(C(=O)NCc2ccccc2)c2ccccc2)cc2sccc21 (configuration not stated)
  A = -101	B = 102	C = 103	D = 22

SMILES: O=C(Nc1ccncc1)OCCc1ccccn1
  A = 6	B = 100	C = 102	D = 5

SMILES: CNS(=O)(=O)c1c(I)ccc2ccccc12
  A = -1	B = 109	C = 107	D = -5

SMILES: CCOC(=O)C1=C(C)Nc2ccccc2N=C1NC(=O)c1ccccc1C
  A = 1	B = 96	C = 103	D = -14

SMILES: COC(=O)CN1C(=O)C2(C(C(=O)OC)=C(N)Oc3ccccc32)C2=C1CCCC2=O (configuration not stated)
  A = -24	B = 103	C = 104	D = -10

Overlap with the part before: five entries, then new ones.
Codes – A = MenB inh; B = PV pol inh; C = PV pol inh intensity; D = MbtI inh
SMILES: Cn1c(C(=O)OC(C(=O)NCc2ccccc2)c2ccccc2)cc2sccc21 (configuration not stated)
  A = -101	B = 102	C = 103	D = 22

SMILES: O=C(Nc1ccncc1)OCCc1ccccn1
  A = 6	B = 100	C = 102	D = 5

SMILES: CNS(=O)(=O)c1c(I)ccc2ccccc12
  A = -1	B = 109	C = 107	D = -5

SMILES: CCOC(=O)C1=C(C)Nc2ccccc2N=C1NC(=O)c1ccccc1C
  A = 1	B = 96	C = 103	D = -14

SMILES: COC(=O)CN1C(=O)C2(C(C(=O)OC)=C(N)Oc3ccccc32)C2=C1CCCC2=O (configuration not stated)
  A = -24	B = 103	C = 104	D = -10

SMILES: Cc1ccc(CN2C(=O)N/C(=C\c3cn(CC(=O)N4CCOCC4)c4ccccc34)C2=O)cc1
  A = -38	B = 103	C = 108	D = -8

SMILES: CCCCCOc1ccc(/C=C/C(=O)N(CCO)CCO)cc1
  A = -8	B = 101	C = 99	D = 14

SMILES: COc1ccccc1N1CCN(C(C)C(=O)Nc2ccccc2-c2ccccc2)CC1 (configuration not stated)
  A = -17	B = 107	C = 109	D = 0

SMILES: N#CCn1c(CSc2nc3cc(Cl)ccc3n2Cc2ccccc2)nc2ccccc2c1=O
  A = -19	B = 109	C = 120	D = -4

SMILES: Cc1nnc(SC2CCN(S(=O)(=O)c3ccc(F)cc3)CC2)s1
  A = -5	B = 101	C = 101	D = -5

SMILES: CSc1cccc(NC(=O)CN2C(=O)CCc3ccccc32)c1
  A = 6	B = 99	C = 102	D = 8

SMILES: N#CCC(=O)NCCc1ccccc1
  A = .	B = 103	C = 106	D = -13

SMILES: C=CCC1NCCc2c(Br)cccc21 (configuration not stated)
  A = -27	B = 104	C = 103	D = -6

SMILES: CC(C)NC(=O)c1ccc(CS(=O)(=O)c2c(Cl)cccc2Cl)o1
  A = -6	B = 98	C = 102	D = 7

SMILES: CCC(O)(c1ccc(OC)cc1)C(CN1CCCC1)c1ccccc1 (configuration not stated)
  A = 4	B = 103	C = 102	D = -3

SMILES: FC(F)(F)c1cc(-c2ccccc2)nc2c(-c3ccccc3)cnn12
  A = -31	B = 104	C = 98	D = -5

SMILES: Cc1cccc(C)c1NC1=NCCCS1
  A = 0&4	B = 100&103	C = 102&102	D = -19&-10

SMILES: Cc1c(C(=O)Nc2nc3ccccc3s2)oc2c1C(O)CC(C)(C)C2 (configuration not stated)
  A = -16	B = 103	C = 103	D = -36

SMILES: O=C(O)c1ccccc1NCN1C(=O)c2ccccc2C1=O
  A = 33	B = 100	C = 105	D = -436

Assay outcomes: PubChem, ICCB-Longwood Screening Facility, Harvard Medical School
